HPGD block: qHTS Assay for Inhibitors of HPGD (15-Hydroxyprostaglandin Dehydrogenase) | 15-hydroxyprostaglandin dehydrogenase [NAD(+)] (Homo sapiens), P15428 | purified HPGD, NADH fluorescence kinetic, PGE2 substrate | Potency, µM, for the others: top-dose activity change, negative = inhibition, usual class: inhibitors | actives 4.3% (n = 150,000) | AID 894, 2007; active = well fitted inhibition curve with a large enough effect (not every such curve was filed as active); inconclusive = small, poorly fitted or top-dose-only effect, or another doubt; inactive = no such curve, though single readings can be large or run the other way;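 note: top concentration of the series not given in the record; plate controls included wells without enzyme; inactives centre near -10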
Target sequence (P15428 whole entry, looked up): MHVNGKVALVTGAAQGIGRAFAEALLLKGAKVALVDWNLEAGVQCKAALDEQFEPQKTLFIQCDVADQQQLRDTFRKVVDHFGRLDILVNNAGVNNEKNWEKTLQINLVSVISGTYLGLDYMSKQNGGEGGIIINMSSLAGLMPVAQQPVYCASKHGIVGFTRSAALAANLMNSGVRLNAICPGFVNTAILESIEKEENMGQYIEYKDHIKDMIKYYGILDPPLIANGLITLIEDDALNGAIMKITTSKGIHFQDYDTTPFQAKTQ
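NADH formation kinetics: reaction with 30 uM PGE2 and 1 mM NAD+ (final), 20 nM enzyme, Tris-HCl pH 8 with Tween 20, after 15 min compound preincubation at room temperature. Fluorescence change, last versus first of five reads.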
An asterisk follows results filed as active; ? = inconclusive; & = joins results of further samples. % is set by controls: 0 for no effect and ±100 for the full control effect; potency is the fitted concentration of half-maximal effect. A portion of the library (hit frequency here may not be typical).

| Compound | HPGD block |
| --- | --- |
| COC(=O)CN1C(=S)N(c2ccc(Cl)cc2)C(=O)C1CC(=O)Nc1ccc(F)cc1 (centres undefined) | -14% |
| O=S(=O)(c1ccc(S(=O)(=O)N2CCN(C/C=C/c3ccccc3)CC2)cc1)N1CCCC1 | -2% |
| CN1[C@@H]2CC[C@@H]1CC(OC(=O)[C@H](CO)c1ccccc1)C2 (some centres undefined) | -1% |
| CCC(C)Sc1nc2c(c(=O)[nH]c(=O)n2C)n1CCc1ccccc1 (centres undefined) | -16% |
| COc1ccc(CN2CCN(S(=O)(=O)c3ccc(NC(C)=O)cc3)CC2)cc1OC | -2% |
| Cc1csc(=Nc2c(C)n(C)n(-c3ccccc3)c2=O)n1Cc1ccccc1 | -6% |
| c1ccc2c(c1)ccc1ncccc12 | -8% |
| COc1ccc(C(=O)N2CCN(S(=O)(=O)c3cc(Cl)ccc3OC)CC2)cc1 | -6% |
| O=C(NC(=S)NCCN1CCOCC1)c1cccc(Cl)c1 | -1% |
| CCOc1ccccc1C1CC(=O)Nc2c1c(=O)n(C)c(=O)n2C (centres undefined) | -13% |
| O=C(C1CCCN(S(=O)(=O)Cc2ccccc2)C1)N1CCC(Cc2ccccc2)CC1 (centres undefined) | -14% |
| CCOC(=O)C1CCCN(S(=O)(=O)c2cc(OCC(=O)NC3CCCCC3)c(C)cc2Cl)C1 (centres undefined) | -5% |
| O=C(NCc1cccnc1)/C(=C/c1ccc(-c2ccc(Cl)cc2)o1)S(=O)(=O)c1ccccc1 | ? |
| O=C(Nc1cnn(Cc2ccc(Cl)cc2Cl)c1)c1cc(-c2cccs2)on1 | ? |
| CC(=O)c1ccc(N2CCN(CCC#N)CC2)c(F)c1 | -3% |
| O=C(Cc1cccs1)NNC(=S)NC(=O)c1ccccc1 | -17% |
| Cc1cccc(NC(=O)C2CCCN2S(=O)(=O)c2ccc3c(c2)n(C)c(=O)c(=O)n3C)c1 (centres undefined) | -13% |
| CN(C)CCNC(=O)c1cc(Br)ccc1Cl | -4% |
| Cc1ccc(C)c(S(=O)(=O)NCCOC(=O)Nc2sc(=S)n(C)c2C)c1 | -20% |
| C=CCOc1ccccc1CNCc1cccnc1 | -3% |
| Cc1cccc(C(=O)N2CCN(Cc3ccc4c(c3)OCO4)CC2)c1 | -4% |
| CCC(=O)Nc1ccc2c(c1)C(=O)N(C)C2=O | ? |
| CN(c1ccccc1)S(=O)(=O)c1cccc(C(=O)N2CCN(c3ccccn3)CC2)c1 | -9% |
| Cc1cc(C(C)(C)C)cc(C)c1COC(=O)C1CCC(=O)N1 (centres undefined) | -9% |
| CC1=CCC(C(=O)O)C(C(=O)Nc2nc3ccc(S(C)(=O)=O)cc3s2)C1 (centres undefined) | -17% |
| CN(C(=O)COc1ccc(Cl)cc1Cl)c1nnc(C23CC4CC(CC(C4)C2)C3)s1 | -7% |
| Nc1nc(-c2ccco2)nc(N2CCCCC2)n1 | -7% |
| CCOc1ccc(N=C2NC(=O)S/C2=C\c2ccc(O)cc2)cc1 | -16% |
| CCCCCC1CCC(C(=O)NNC(=S)NCC)CC1 (centres undefined) | 2% |
| CCN1CCN(C(=S)c2ccc(Br)cc2)CC1 | -30% |
| C=CCNC(=O)/C(=C\c1ccc2c(c1)OCO2)NC(=O)c1ccc(Br)cc1 | -3% |
| O=C(NCCN1CCC(Cc2ccccc2)CC1)C1CCCN(S(=O)(=O)c2cnc[nH]2)C1 (centres undefined) | -2% |
| CC(C)CCOc1ncnc2c1sc1nc3c(cc12)CSC(C)(C)C3 | ? |
| CC1CCN(C(=O)Nc2ccc3nsnc3c2)CC1 | ? |
| COc1ccccc1NC(=O)N(Cc1ccco1)Cc1cc2c(C)ccc(C)c2[nH]c1=O | -13% |
| COCCN(CC(=O)NCc1ccc(F)cc1)C(=O)CCC(=O)Nc1nccs1 | -10% |
| Cc1ccc(C(=O)Nc2ccc(S(=O)(=O)N3CCN(C)CC3)cc2)cc1 | -2% |
| COc1ccccc1NC(=O)CN1C(=O)C2(OCCCO2)c2ccccc21 | -1% |
| CC1Cc2ccccc2N1C(=O)CCNS(=O)(=O)c1cccc2nsnc12 (centres undefined) | 0% |
| O=C(Cc1c(F)cccc1Cl)NCCCn1ccnc1 | -6% |
| Cc1ccc(CN2CCN(/N=C/c3ccc(C(F)(F)F)cc3)CC2)c(C)c1 | -1% |
| CC1CCCCN1C(=O)CSc1nc2ccccc2n1CC(=O)N1CCc2ccccc21 (centres undefined) | -5% |
| CCOc1cc2[nH]c(=O)n(CCCCC(=O)NCc3ccco3)c(=O)c2cc1OCC | ? |
| Cc1nc(NC(=O)C(Cl)Cl)sc1C(=O)N(C)C | -16% |
| COc1ccc(-c2noc(CCC(=O)Nc3cccc(C)c3)n2)cc1 | ? |
| Cc1ccc(-c2noc(CCC(=O)NCCc3ccccc3Cl)n2)cc1 | -4% |
| C/C(=N/NS(=O)(=O)c1ccc(Cl)cc1)c1cccc(NC(=O)c2ccc(Cl)cc2Cl)c1 | -9% |
| O=C(NNC(=S)Nc1cccc(C(F)(F)F)c1)c1ccccc1Cl | -20% |
| COC(=O)c1cc(NC(=O)c2ccccc2)c(=O)oc1C/C=N\OCc1ccc(Cl)cc1Cl | -29% |
| C=CCn1cnc2scc(-c3ccc(C)cc3)c2c1=O | -3% |
| CCC(C)NC(=O)C(Cc1ccccc1)n1cccc1 (centres undefined) | -6% |
| CCCC(=O)Nc1ccc(NC(=S)NC(=O)c2ccccc2[N+](=O)[O-])cc1 | -23% |
| O=C1c2ccc3c4c(ccc(c24)C(=O)N1c1ccc2ccccc2c1)CC3 | ? |
| COc1ccc(NC(=O)c2ccc(Cc3ccc(C)cc3)o2)cc1 | ? |
| Cc1ccc(C2=NC3(CCCCC3)N=C2SCC(=O)Nc2ccc3c(c2)OCCO3)cc1 | -16% |
| Cc1cc(=O)oc2cc(OCC(=O)N/N=C/c3cc([N+](=O)[O-])ccc3O)ccc12 | -25% |
| O=C(CN1CCCCC1)Nc1cc(Cl)ccc1Cl | -25% |
| CC1C/C(=N/Nc2ccc([N+](=O)[O-])cc2[N+](=O)[O-])CC(C)(C)C1 (centres undefined) | -6% |
| COc1ccc(CC(=O)NCc2ccco2)cc1OC | -21% |
| CCOC(=O)Cc1nnc(NC(=O)C(CC)Sc2nncn2C)s1 (centres undefined) | -16% |

An excerpt from above in order of SMILES length, descending:
| Compound | HPGD block |
| --- | --- |
| COC(=O)CN1C(=S)N(c2ccc(Cl)cc2)C(=O)C1CC(=O)Nc1ccc(F)cc1 (centres undefined) | -14% |
| Cc1csc(=Nc2c(C)n(C)n(-c3ccccc3)c2=O)n1Cc1ccccc1 | -6% |
| CCOc1ccccc1C1CC(=O)Nc2c1c(=O)n(C)c(=O)n2C (centres undefined) | -13% |
| O=C(Cc1cccs1)NNC(=S)NC(=O)c1ccccc1 | -17% |
| O=C(CN1CCCCC1)Nc1cc(Cl)ccc1Cl | -25% |

The listing continues.
| Compound | HPGD block |
| --- | --- |
| COc1ccc(/C=N/NC(=O)Nc2cccc3nsnc23)cc1 | ? |
| CCCCNc1c([N+](=O)[O-])cc(C(=O)O)cc1[N+](=O)[O-] | -18% |
| O=C(/C=C/c1ccco1)NC1=NCCS1 | ? |
| CCOC(=O)Nc1cccc(Nc2ccccc2)c1 | -18% |
| CCOC(=O)C1CCN(S(=O)(=O)c2ccc(NC(=O)OC)cc2)CC1 | -3% |
| CC(=O)Nc1c(I)c(NC(C)=O)c(I)c(C(=O)O)c1I | -6%&-1% |
| C/C(=N\N=C1\NC(=O)CC(C(=O)O)S1)c1ccc(F)cc1 (centres undefined) | -6% |
| CCOC(=S)SCC(=O)Nc1nc(-c2ccc(Br)cc2)cs1 | -2% |
| CC(CN1CCN(C)CC1)OC(=O)c1ccccc1Cl (centres undefined) | -18% |
| CS(=O)(=O)c1ccc(Sc2nc3ccccc3s2)c([N+](=O)[O-])c1 | -7% |
| CS(=O)(=O)N1CCN(C2CCN(Cc3ccccc3)CC2)CC1 | 0% |
| COc1cc(C)nc(N(Cc2ccccc2)S(=O)(=O)c2ccccc2)n1 | -11% |
| O=C(O)CCn1[nH]c(=O)c2ccccc2c1=O | -11% |
| CC(=O)Nc1cccc(Cn2cccn2)c1 | 4% |
| O=C1CC(N(O)c2ccccc2)C(=O)N1Cc1ccccc1 (centres undefined) | -3% |

Further structures.
molecule	HPGD block
OC(CNCC1CCCO1)Cn1c2ccccc2c2ccccc21 (centres undefined)	0%
CN(CCC(=O)O)S(=O)(=O)c1ccccc1	-15%
CCCn1c(SCc2ccc(Cl)cc2)nc2c1c(=O)[nH]c(=O)n2C	-29%
COc1ccc(OC)c(C(O)c2nc3ccccc3n2C(C)C)c1 (centres undefined)	13%
CCC(CC)C(=O)Nc1ccc(Cl)c(Cl)c1	-20%
COc1ccccc1NC(=O)COC(=O)c1ccc2c(c1)nc(C)n2-c1ccccc1	?
CCOC(=O)C1=C(C)NC(SCC(=O)O)=C(C#N)C1c1ccco1 (centres undefined)	?
O=C1CCCN1c1ccc(S(=O)(=O)NCc2ccco2)cc1	-9%
CCn1c(SCC(=O)c2[nH]c(C)c(C(C)=O)c2C)nnc1-c1cccs1	-11%
CCOC(=O)N1CCN(C(=O)CSc2nnc(-c3ccccc3OC)o2)CC1	-9%
O=S(=O)(Nc1ccc2c(c1)nc1n2CCN(Cc2ccccc2)C1)c1ccccc1	?
CC(=O)NCCn1c(SCc2ccccc2C)nc2ccccc2c1=O	-24%
Cc1cc(C(F)(F)F)nc(NCc2ccc(F)cc2)n1	-10%
Cc1cc(C)nc(-n2nc(C)c(Sc3ccc(F)cc3)c2N)n1	-12%
Cc1ccccc1-n1c(SCC(=O)N2CCOCC2)nc(O)cc1=O	-5%
CCn1nc(C(=O)O)c(=O)c2cc3c(cc21)OCO3	-15%&-4%&-8%&-6%&-8%
Cc1ccc(NC(=O)CN(C)Cc2ccc(F)cc2)c([N+](=O)[O-])c1	-10%
COc1ccc(CC(=S)N2CCOCC2)cc1	?
O=c1onc(-c2cccs2)n1Cc1ccccc1	-6%
N#C/C(=C(/O)CN1CCCCC1)c1nc(-c2ccc(Cl)cc2)cs1	-3%

A run of entries from the list above:
molecule	HPGD block
Cc1cc(C)nc(-n2nc(C)c(Sc3ccc(F)cc3)c2N)n1	-12%
Cc1ccccc1-n1c(SCC(=O)N2CCOCC2)nc(O)cc1=O	-5%
CCn1nc(C(=O)O)c(=O)c2cc3c(cc21)OCO3	-15%&-4%&-8%&-6%&-8%
Cc1ccc(NC(=O)CN(C)Cc2ccc(F)cc2)c([N+](=O)[O-])c1	-10%
COc1ccc(CC(=S)N2CCOCC2)cc1	?
O=c1onc(-c2cccs2)n1Cc1ccccc1	-6%
N#C/C(=C(/O)CN1CCCCC1)c1nc(-c2ccc(Cl)cc2)cs1	-3%

New compounds follow
molecule	HPGD block
Cc1sc2nc(-c3ccncc3)[nH]c(=O)c2c1-c1ccccc1	-30%
COC(=O)c1sc2nc(-c3ccccc3)nc(N3CCN(C)CC3)c2c1C	?
O=C(NCCCN1CCOCC1)c1ccc(Br)cc1	-10%
COCCOC(=O)C1=C(C)N(c2ccccc2)C(=O)NC1c1cccc([N+](=O)[O-])c1 (centres undefined)	-12%
Cc1ccc(S(=O)(=O)NCCC(=O)NCc2ccccc2)cc1	-11%
Cc1ccc(-n2c(O)c(C=NCc3ccccn3)c3ccccc3c2=O)cc1C	-7%
COC(=O)[C@@]1(Cc2ccccc2)C=C[C@@H](C)N1C(=O)c1ccccc1	-24%
CCOc1ccc2nc(NC(=O)CN3CCN(C)CC3)sc2c1	-7%
O=[N+]([O-])c1c(NCCCO)cc(Sc2ccc(Cl)cc2)c2nonc12	-29%
Cc1cccc(-n2ccnc2SCC(=O)N2CCCc3ccccc32)c1C	-16%
Cc1nnc(SCCOC(N)=O)n1C	-5%
CN[C@@H]1[C@H](O[C@@H]2O[C@H](C)[C@@](O)(CO)[C@H]2O[C@H]2[C@H](O)[C@H](O)[C@H](N=C(N)N)[C@@H](O)[C@@H]2N=C(N)N)O[C@@H](CO)[C@H](O)[C@H]1O	0%
O=C(NCCc1ccccc1)c1ccc(NC2=NC3CS(=O)(=O)CC3S2)cc1 (centres undefined)	-16%
COc1cc(OC)cc(-c2nnc(SCC(=O)N3CCOCC3)o2)c1	0%
CCC(=O)N1CCNC(=O)C1CC(=O)Nc1ccc(C)c(Cl)c1 (centres undefined)	-4%
CC1CCC(NC(=O)c2ccc(N3CCCC3=O)cc2)CC1 (centres undefined)	-24%
Cc1cc(C)c(C#N)c(SCC(=O)NC2CC2)n1	-29%
COC(=O)C1=C(C(=O)OC)[C@@H]2N(Cc3ccccc3)c3ccccc3[C@@]23C[C@@H](C(=O)OC)N=C3N1	-3%
C=CCN(C)NC(=S)Nc1ccccc1	1%
Cc1cc(S(=O)(=O)Nc2cccc(O)c2)c(C)s1	-22%
CS(=O)(=O)Nc1cccc(-c2nc(Nc3ccccc3)c3ccccc3n2)c1	?
CCOC(=O)CC1ON(C)C(=O)N1c1ccc(Cl)cc1Cl (centres undefined)	-14%
O=S(=O)(NCC(c1ccco1)N1CCN(c2ccc(F)cc2)CC1)c1ccc2c(c1)OCCO2 (centres undefined)	-8%
O=C(Nc1nnc(SCc2ccc(Cl)cc2)s1)c1cnccn1	-6%
CCCCOC(=O)/C(=C\c1ccc([N+](=O)[O-])o1)NC(=O)c1ccccc1	-5%
Cc1nnc(SCC(=O)Nc2ccc3c(c2)OCCO3)n1N	-2%
CCSc1nnc(NC(=O)c2c(-c3ccccc3Cl)noc2C)s1	-26%
CC(=O)c1cc2c(cc1NC(=O)CN1CCCCCCC1)OCO2	-10%
O=C(CN1C(=O)c2ccccc2C1=O)Nc1ccccc1C(=O)NC1CCCCC1	3%
O=C(NCCC1=CCCCC1)c1ccc(CN2CCOCC2)cc1	-21%
C=C(C)CC1(NC(C)c2ccccc2)CCCCC1 (centres undefined)	1%

Screening results deposited in PubChem BioAssay by National Center for Advancing Translational Sciences (NCATS).
